A1 inh = inhibitors of the anti-apoptotic protein A1, read as caspase activation | MEF A1-2A-BIM cells, Caspase-Glo 3/7 luminescence, 3 h; percent of clofoctol response, vehicle zero | actives 0.066% (n = 330,000) | AID 2462 | caspase activation, % (no concentration beside the values);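 active means over half of replicate activation scores above 10%, or exactly half above 10 with the replicate mean above 10; inconclusive means replicate mean below 10 yet half the replicates above 10; inactive means over half of replicates below 10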;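 further: wells of about 30 µL received 50 nL stock; many hits fall short of the cut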
B2AR ag = activates human beta-2 adrenergic receptor causing internalization; response, % (no concentration beside the values); AID 504454; actives 0.43% (n = 340,000); Am2.2-beta2AR cells, FAP receptor internalization, flow cytometry; reference of the scale not given here; P07550;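 active means response above a set limit, near 3 SD of response in nonfluorescent compounds, cut at about 42% in these data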;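 further: stock transfer was 100 nL into about 11 µL; a reference agonist was the positive control; negative values mostly stem from fluorescent compounds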
Target sequence (P07550 whole entry, looked up): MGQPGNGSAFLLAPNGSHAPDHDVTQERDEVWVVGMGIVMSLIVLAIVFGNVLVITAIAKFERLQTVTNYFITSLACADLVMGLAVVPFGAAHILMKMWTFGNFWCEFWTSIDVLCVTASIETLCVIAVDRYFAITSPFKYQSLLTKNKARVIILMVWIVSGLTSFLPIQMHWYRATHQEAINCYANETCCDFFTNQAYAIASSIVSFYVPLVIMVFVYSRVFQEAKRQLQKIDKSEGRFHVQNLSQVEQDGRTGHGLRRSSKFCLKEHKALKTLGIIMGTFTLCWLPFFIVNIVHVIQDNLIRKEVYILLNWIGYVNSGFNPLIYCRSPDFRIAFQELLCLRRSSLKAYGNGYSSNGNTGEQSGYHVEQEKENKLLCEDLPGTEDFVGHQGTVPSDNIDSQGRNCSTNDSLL
LANA-H2A inh = blocks KSHV LANA binding to histone H2A/H2B | inhibition, % (concentration not given with the values) | cell-free LANA-H2A/H2B peptide, fluorescence polarization | actives 0.6% (n = 320,000); in the data active means inhibition mostly above about 10%, no sharp cut-off; inactive means mostly below about 6.7%;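 further: stock transfer was 7.5 nL into about 10 µL; 0% = median of vehicle wells and 100% = median of positive control wells; one replicate is shown; the record names a cut of 25% in any replicate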
Calb FLC = C. albicans growth modulation with fluconazole; C. albicans CaCi-2 (fluconazole-resistant clinical isolate) + fluconazole, Alamar Blue growth, 48 h; growth inhibition, % (test concentration not listed); actives 0.57% (n = 300,000);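 active means most replicates above 75%; inconclusive means exactly half above 75%; inactive means most below 75%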;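 further: all wells also contain fluconazole at 8 µg/ml as a sub-toxic cotreatment; 0% = median of DMSO wells and 100% = median of geldanamycin control wells; wells of about 8 µL received 7.5 nL stock; the first replicate is given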
Beta cell apopt = beta cell apoptosis inhibition | INS-1E cytokine-induced death, ATP luminescence, 48 h; percent of positive-control rescue, neutral wells zero | protection from apoptosis, % (test concentration not listed) | actives 0.8% (n = 300,000);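 active means all replicates at 75% or more, or half of them and the mean; inconclusive means half reach 75% but not the mean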;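 further: 0% = cytokine-treated negative control wells and 100% = positive control rescue; higher means more ATP so stronger rescue from cytokine killing; wells of about 40 µL received 100 nL stock; the first replicate is given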
RanGTP-Impb inh = disruptors of Ran-importin-beta complex formation – biochemical, FRET, CFP-Ran, YFP-importin-beta, homogeneous, primary screen; cell-free CFP-Ran/YFP-importin-beta FRET ratio; inhibition, % (concentration not given with the values); actives 1.1% (n = 300,000); AID 2216;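 active means most replicates above 15%; inconclusive means exactly half above 15%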;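 further: 0% = DMSO wells and 100% = Ran loaded with GDP instead of GTP; wells of about 40 µL received 100 nL stock; the first replicate is given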
UCH37 inh = inhibitors of human deubiquitinating enzyme UCH37 | purified proteasome/UCH37, Ub-AMC cleavage fluorescence | inhibition, % (test concentration not listed) | actives 0.33% (n = 330,000) | AID 588478;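 active means mean of two replicates above 20%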;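 further: 0% = compound-free wells with enzyme and 100% = wells lacking proteasome; stock transfer was 100 nL into about 20 µL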
Target sequence (Q9Y5K5 whole entry, looked up): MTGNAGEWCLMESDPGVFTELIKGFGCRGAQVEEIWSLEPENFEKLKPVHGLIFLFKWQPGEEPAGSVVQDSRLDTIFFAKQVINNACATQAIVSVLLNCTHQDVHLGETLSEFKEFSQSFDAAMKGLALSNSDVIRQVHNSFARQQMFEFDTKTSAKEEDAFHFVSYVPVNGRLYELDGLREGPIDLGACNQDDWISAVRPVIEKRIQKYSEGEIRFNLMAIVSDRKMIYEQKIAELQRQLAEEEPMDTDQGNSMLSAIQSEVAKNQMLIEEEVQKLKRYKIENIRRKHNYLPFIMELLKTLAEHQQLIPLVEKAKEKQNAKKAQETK
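Material: Human UCH37 enzyme supplied as purified proteasome complex | Schedule: 30 min compound-proteasome preincubation then 25 min substrate reaction, room temperature | Detection: AMC fluorescence from Ub-AMC cleavage, excitation 355 nm, emission 460 nm | Benchmarks: Wells without proteasome as full block, compound-free enzyme plus substrate as uninhibited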
T cruzi repl = blocks replication of Trypanosoma cruzi; actives 1.4% (n = 300,000); T. cruzi beta-gal in NIH3T3, luminescence, 90 h; inhibition, % (no concentration beside the values);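 active means mean inhibition across valid replicates above about 55%, limit read from the data; inconclusive means mean below that limit but half or more replicates reach it; inactive means mean below it, under half of replicates reach it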;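 further: signal also drops with host cell toxicity which is not excluded here; 0% = plate median of DMSO wells and 100% = zero luminescence signal; higher percent means less beta-gal luminescence so fewer parasites; stock transfer was 50 nL into about 50 µL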
* hit, by the source's call; u = inconclusive; x = not tested or not shown.

mol	A1 inh	B2AR ag	LANA-H2A inh	Calb FLC	Beta cell apopt	RanGTP-Impb inh	UCH37 inh	T cruzi repl
Cc1ccc2c(C)c(C(=O)NCc3ccc(S(N)(=O)=O)cc3)oc2c1	0.3	-1	2.3	0	-5	u	1.4	-8
NC(=O)CSc1nnc(-c2cc3ccccc3o2)n1Cc1ccccc1	0.3	-14	-2.7	-20	2	-1.5	-14	-1
C#CCOCCOCCOCCNc1nc(N2CCN(C(=O)[C@H](CCCCN)n3cc(CCCC)nn3)CC2)nc(N2CCN(C(=O)[C@H](CCCCN)n3cc(CCCC)nn3)CC2)n1	2.3	5	-2.5	4	-8	0.7	-0.6	-7
O=C(O)CN1C(=O)C(=O)N(Cc2ccccc2F)C1=O	-0.8	-4	-0.2	0	0	6.3	2.7	0
CNc1ccc(C(O)(C(F)(F)F)C(F)(F)F)cc1C(O)(C(F)(F)F)C(F)(F)F	0.7	2	-3.0	-6	x	-1.2	2.1	7
CN(Cc1ccc(F)cc1)S(=O)(=O)c1nnc(NC(=O)c2ccccc2Br)s1	0.9	3	0.7	-2	10	0.0	1.9	5
CC(=O)Nc1ccc(SC[C@H](Cc2ccccc2)N2CCN(CCc3ccccc3)CCC2=O)cc1	0.9	3	2.7	-5	4	-2.7	6.4	9
Cc1ccc(C)c(NC(=O)C(C)CC2COCCO2)c1 (stereo unspecified)	-0.2	1	-2.1	-21	x	3.9	4.3	-8
N/C(=N\OC(=O)C1CCCCC1)c1ccc(Cl)cc1	0.0	-3	6.3	0	-3	-6.5	-0.5	-5
Cc1cc(C)nc(SCC(=O)N(C)CC(=O)Nc2c(Cl)cccc2Cl)n1	1.3	0	6.3	-12	2	7.7	5.5	-3
CCCCCn1c(S(=O)(=O)O)nc2ccccc21	0.6	-7	3.6	-2	-8	1.5	0.7	-11
Cc1noc(C)c1C(=O)Nc1nc(-c2cccs2)cs1	-8.3	-3	0.4	x	4	x	3.4	x
CC(=O)Nc1nc(C)c(Cc2ccccc2)c(=O)[nH]1	0.2	0	-0.9	x	-4	3.0	0.7	-11
CC(NC(=O)c1cccc(S(=O)(=O)N2CCN(Cc3ccccc3)CC2)c1)c1ccc(Br)cc1 (stereo unspecified)	-0.3	-2	0.0	-14	25	4.8	0.2	30
O=C(O)CCN1C(=O)c2ccc(NC(=O)CCc3ccccc3)cc2C1=O	0.3	-5	3.8	2	-1	-1.8	-223	-5
CCn1c(=O)cc(SCC(=O)N2CCN(C(=O)c3ccco3)CC2)c2ccccc21	0.0	-4	0.4	4	-7	-1.6	-0.8	11
CCN(CC)C(=O)CSc1ncnc2c(-c3ccc(OC)cc3)nsc12	-0.7	x	-3.2	16	-3	1.9	-76	-16
COc1ccc(NC(=O)CSc2nc3ccccc3nc2N2CCCC2)c(OC)c1	x	1	1.0	-4	7	2.3	-13	1
CCCCn1c(CCc2ccccc2)nc2cc3[nH]c(=O)c(C(C)C)nc3cc21	1.0	-1	-3.7	2	13	u	-14	35
Cc1c(Cl)cccc1NS(=O)(=O)c1ccc2c(c1)C1C=CCC1C(c1ccc(C(=O)O)cc1)N2 (stereo unspecified)	1.5	-2	3.7	x	-1	x	-1.2	x
O=C(c1ccco1)N1CCN(C(=S)Nc2ccc(F)cc2)CC1	-2.6	-8	-2.2	-7	x	-0.2	0.9	-7
CN(C)c1ccc(/C=N/NC(=O)c2cccc(N3CCCC3=O)c2)cc1	-0.8	-7	-0.6	8	1	5.0	x	-1
CCCc1ccc(OCc2ccc(C(=O)N3CCCC3)o2)cc1	3.2	-4	-1.1	9	x	-5.9	7.5	24
O=C(OCC(=O)N1CCCc2ccccc21)c1cnc(Cl)c(Cl)c1	0.4	28	0.1	6	2	4.4	-2.6	-24

Retrieved by compound from above:
mol	A1 inh	B2AR ag	LANA-H2A inh	Calb FLC	Beta cell apopt	RanGTP-Impb inh	UCH37 inh	T cruzi repl
COc1ccc(NC(=O)CSc2nc3ccccc3nc2N2CCCC2)c(OC)c1	x	1	1.0	-4	7	2.3	-13	1
Cc1c(Cl)cccc1NS(=O)(=O)c1ccc2c(c1)C1C=CCC1C(c1ccc(C(=O)O)cc1)N2 (stereo unspecified)	1.5	-2	3.7	x	-1	x	-1.2	x
CCCc1ccc(OCc2ccc(C(=O)N3CCCC3)o2)cc1	3.2	-4	-1.1	9	x	-5.9	7.5	24
CC(=O)Nc1nc(C)c(Cc2ccccc2)c(=O)[nH]1	0.2	0	-0.9	x	-4	3.0	0.7	-11

Remaining list, next part:
mol	A1 inh	B2AR ag	LANA-H2A inh	Calb FLC	Beta cell apopt	RanGTP-Impb inh	UCH37 inh	T cruzi repl
Cc1ccc2c(C(=O)CN3CCC(C(N)=O)CC3)c(C)[nH]c2c1	0.1	2	2.2	0	-1	-1.7	1.7	-13
COc1ccc(-n2nc(C(=O)NCC(=O)Nc3ccccn3)c3ccccc3c2=O)cc1	0.2	2	-1.5	6	16	-2.2	-150	-4
CCC(CC)C(=O)NCc1ccccc1Cl	1.0	-2	0.7	4	-1	1.9	-0.3	-2
OC(CN1CCN(Cc2ccccc2)CC1)Cn1c2ccccc2c2ccccc21 (stereo unspecified)	0.0	15	0.7	2	-4	-1.3	4.9	13
O=C1N[C@@H](Cc2ccccc2)C(=O)N2[C@H]3Nc4ccccc4[C@@]3([C@]34C[C@H]5C(=O)N[C@@H](Cc6ccccc6)C(=O)N5[C@H]3Nc3ccccc34)C[C@@H]12	-0.8	x	1.6	-5	-1	-2.5	4.6	8
CC(C)CCN1CCC(n2nccc2NC(=O)C2CCOC2)CC1 (stereo unspecified)	0.5	3	-8.2	40	-5	2.8	0.8	-19
O=C(Nc1ccccc1)C(Cc1cccs1)c1nn[nH]n1 (stereo unspecified)	-1.0	-1	-1.8	-15	-8	u	1.7	0
COc1ccc(N2CCN(c3nc(NCCc4ccc(OC)c(OC)c4)nc(OC)n3)CC2)cc1	-1.9	2	-0.1	8	-3	-14	1.3	16
O=C(NCCCC(=O)N1CCOCC1)c1cccnc1	0.3	-6	0.1	6	x	1.7	6.3	2
C=CCNCCCCOc1ccc(OCc2ccccc2)cc1	-0.5	11	0.8	-28	-1	-0.5	0.7	43
CCOC(=O)N1CCC(c2cc(=O)n3[nH]ccc3n2)CC1	0.5	-15	9.1	-2	x	-3.2	-5.1	1
CCOc1ccccc1NC(=O)N1CCCc2ccccc21	1.1	-10	0.8	-14	3	2.6	5.2	8
CCOc1ccc(NC(=O)c2cc(Cl)nc3ccccc23)cc1	0.9	-5	0.7	15	4	5.8	3.4	-5
COc1ccc(C(NC(=O)c2ccc(-c3ccccc3)cc2)c2ccccc2)cc1 (stereo unspecified)	1.6	0	2.0	3	13	0.8	1.0	29
COc1ccc2c(c1OC)C(C1c3c(cc4c(c3OC)OCO4)CCN1C)OC2=O (stereo unspecified)	-1.0	-8	-1.9	-8	-4	2.3	-0.1	1
Cc1c(NC(=O)c2cc3ccccc3oc2=O)c(=O)n(-c2ccccc2)n1C	0.0	-2	-0.9	2	-4	-11	8.0	-33
COc1ccccc1-c1c(C(F)(F)F)oc2cc(OC(=O)c3cccc([N+](=O)[O-])c3C)ccc2c1=O	0.9	6	1.2	-27	20	-0.8	6.3	4
O=C(NCc1ccccc1OC(F)(F)F)C1CCC(=O)N(Cc2ccccn2)C1 (stereo unspecified)	-0.6	6	-7.4	-13	1	-0.1	1.9	-4
COc1ccc(S(=O)(=O)NCCC(=O)NCc2cccs2)cc1	1.0	0	-0.2	4	-2	-1.7	5.4	-9
O=C(CSc1nc2ccccc2n1CC(=O)N1CCCC1)Nc1nccs1	1.0	-4	4.0	5	-2	-0.1	4.8	-13
C=CCn1c(SCc2ccccc2C#N)nnc1-c1ccccc1O	0.1	3	2.5	13	-2	-1.0	2.4	6
CCNc1nc2nonc2nc1NCC	0.1	-1	1.6	-7	0	6.3	7.7	-9
CCOC(=O)C1CCN(C(=O)c2cnn3c(C)cc(C)nc23)CC1	1.1	2	7.1	-11	-3	2.0	-32	7
O=C(CN1C(=O)C2C3CCC(C3)C2C1=O)OCC(=O)c1cccc([N+](=O)[O-])c1 (stereo unspecified)	0.9	-2	0.8	4	-9	0.1	5.5	14
O=C1CC(C(=O)Nc2ccc(C(=O)O)cc2)C(c2ccccc2)O1 (stereo unspecified)	0.2	7	-4.5	11	3	-2.4	-0.8	-2
Cn1ccnc1SCc1ccc([N+](=O)[O-])cc1	0.8	-5	-3.9	-10	-5	-2.5	1.5	-12
CC(=O)c1ccc(N2CCN(C(=O)c3cc(-c4ccncc4)nc4ccc(Cl)cc34)CC2)cc1	0.1	19	6.7	-7	3	6.9	2.8	36
Cc1cccc(/C=C/C(=O)c2cc(Br)ccc(=O)c2O)c1	-0.1	30	0.5	100*	38	-7.0	1.9	43
CCCCCCCCCCCCS[C@H]1CS(=O)(=O)C[C@@H]1O	-0.9	5	6.1	12	1	1.6	6.1	10
Cc1ccc(-n2cc(-c3ccccc3)c3c(N4CCOCC4)ncnc32)cc1	x	12	x	-25	x	-5.1	-1.7	2
O=C(CCN1CCCCC1)N/N=C/c1ccc(Br)cc1	0.2	9	2.5	6	2	7.4	x	-10
COc1ccc(NC(=O)CN2CCC(C(N)=O)(N3CCCCC3)CC2)c(OC)c1	1.3	-6	4.2	-5	-3	5.1	4.2	5
Cc1cc(C(=O)C(C)Cl)c(C)n1Cc1ccco1 (stereo unspecified)	0.4	4	3.3	-15	-4	1.7	1.8	2
